# Bioassay records as filed in PubChem BioAssay.
# KCNQ2 inh – KCNQ2 potassium channel inhibitors, primary screen, cell-based, CHO-K1, FluxOR thallium flux, B-score (AID 2156); B-score at 10 µM; Potassium voltage-gated channel subfamily KQT member 2 (Rattus norvegicus), O88943; 20 min; stronger effect = lower value; only compounds with negative scores are shown here; some inactives read as strong as hits; actives 1.1% (n = 310,000);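 active = fluorescence ratio B-score at most minus 3 library SDs, with starting brightness B-score within 2 library SDs, cut at about -5.5 in these data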
# Target sequence (O88943 whole entry, looked up): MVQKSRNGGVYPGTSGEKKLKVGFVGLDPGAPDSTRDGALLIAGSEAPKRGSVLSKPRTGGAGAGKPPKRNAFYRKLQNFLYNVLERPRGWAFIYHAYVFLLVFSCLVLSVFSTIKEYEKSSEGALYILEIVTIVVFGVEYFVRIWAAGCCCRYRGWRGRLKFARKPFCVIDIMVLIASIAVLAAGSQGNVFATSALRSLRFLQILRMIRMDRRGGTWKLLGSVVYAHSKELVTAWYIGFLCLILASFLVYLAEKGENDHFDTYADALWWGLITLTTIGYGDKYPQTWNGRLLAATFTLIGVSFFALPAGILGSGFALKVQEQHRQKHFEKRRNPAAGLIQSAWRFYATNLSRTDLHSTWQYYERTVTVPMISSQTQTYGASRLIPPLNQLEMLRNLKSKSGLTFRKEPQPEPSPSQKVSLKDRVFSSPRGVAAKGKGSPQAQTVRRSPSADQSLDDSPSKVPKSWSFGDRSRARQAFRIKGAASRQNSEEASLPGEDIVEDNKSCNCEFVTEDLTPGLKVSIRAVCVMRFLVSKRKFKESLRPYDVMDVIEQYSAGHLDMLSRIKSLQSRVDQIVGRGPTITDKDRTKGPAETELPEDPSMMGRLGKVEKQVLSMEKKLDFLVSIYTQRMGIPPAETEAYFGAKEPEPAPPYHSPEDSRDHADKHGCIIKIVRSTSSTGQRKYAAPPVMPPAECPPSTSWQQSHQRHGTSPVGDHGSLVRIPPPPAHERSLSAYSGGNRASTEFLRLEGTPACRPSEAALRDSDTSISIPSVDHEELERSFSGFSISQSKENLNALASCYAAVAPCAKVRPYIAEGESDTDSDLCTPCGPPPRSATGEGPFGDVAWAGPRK
# KCNQ2 inh baseline – second read-out of KCNQ2 inh, no call of its own (marks repeat the call); B-score; measured here: initial fluorescence intensity artifact check;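 brightness before thallium and not channel activity; 0 = typical well and far values either way flag optical interference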
# Active calls of the source: *; i = inactive.
# The first 14 compounds (preview)
SMILES,KCNQ2 inh,KCNQ2 inh baseline
O=C(OCC(=O)N1CCCCC1)c1ccccc1SCC(=O)N1CCCCC1,i,-0.04
COc1ccc(/C(C)=N/N=C2/NC(=O)CC(C(=O)O)S2)cc1 (stereo unspecified),i,0.01
COc1ccc(N2CCN(C(=O)Cn3nnc(-c4cccs4)n3)CC2)cc1,i,0.89
Cc1nnc(SCC(=O)N(C)C2CCCCC2)s1,i,-0.07
Cn1ccnc1SCC(=O)Nc1ccc2nc(SCC(=O)NC3CC3)sc2c1,i,0.69
CN1CCC(=NNC(=O)C(=O)NC2CCCC2)CC1,i,0.02
CCN(CC)c1ccc(C(=O)OCc2c(C)noc2C)cc1,i,0.87
COc1ccc(NC2=NCCC2)cc1,i,1.4
COC(=O)c1ccc(NC2c3ncccc3C(=O)N2Cc2cccs2)cc1 (stereo unspecified),i,-0.62
Cn1nnnc1SCC(=O)c1c(N)n(C)c(=O)n(C)c1=O,i,0.64
CCCCNCc1cc(OCC)c(OCC(N)=O)cc1Br,i,1.1
COc1ccc(C2/C=C\CN(C(=O)NC(C)C)CC(=O)N2Cc2ccc(F)cc2)cc1 (stereo unspecified),i,-0.55
Cc1[nH]c(=O)c(C#N)cc1-c1csc(-c2ccccc2)n1,i,0.03
COc1ccc(C(=O)c2cnc(/N=C/N(C)C)s2)cc1,i,0.39

# The listing, previewed entries included:
SMILES,KCNQ2 inh,KCNQ2 inh baseline
O=C(OCC(=O)N1CCCCC1)c1ccccc1SCC(=O)N1CCCCC1,i,-0.04
COc1ccc(/C(C)=N/N=C2/NC(=O)CC(C(=O)O)S2)cc1 (stereo unspecified),i,0.01
COc1ccc(N2CCN(C(=O)Cn3nnc(-c4cccs4)n3)CC2)cc1,i,0.89
Cc1nnc(SCC(=O)N(C)C2CCCCC2)s1,i,-0.07
Cn1ccnc1SCC(=O)Nc1ccc2nc(SCC(=O)NC3CC3)sc2c1,i,0.69
CN1CCC(=NNC(=O)C(=O)NC2CCCC2)CC1,i,0.02
CCN(CC)c1ccc(C(=O)OCc2c(C)noc2C)cc1,i,0.87
COc1ccc(NC2=NCCC2)cc1,i,1.4
COC(=O)c1ccc(NC2c3ncccc3C(=O)N2Cc2cccs2)cc1 (stereo unspecified),i,-0.62
Cn1nnnc1SCC(=O)c1c(N)n(C)c(=O)n(C)c1=O,i,0.64
CCCCNCc1cc(OCC)c(OCC(N)=O)cc1Br,i,1.1
COc1ccc(C2/C=C\CN(C(=O)NC(C)C)CC(=O)N2Cc2ccc(F)cc2)cc1 (stereo unspecified),i,-0.55
Cc1[nH]c(=O)c(C#N)cc1-c1csc(-c2ccccc2)n1,i,0.03
COc1ccc(C(=O)c2cnc(/N=C/N(C)C)s2)cc1,i,0.39
CCC(C(=O)NCCCN(CC)Cc1ccccc1)n1nc(C)c2sc3ccccc3c2c1=O (stereo unspecified),i,-0.62
O=c1ccc2ccc(Oc3ccc([N+](=O)[O-])cc3[N+](=O)[O-])cc2o1,i,-0.82
Cc1cccc(N(CC(=O)NC2CCCC2)C(=O)c2cc3cc4cccc(C)c4nc3s2)c1C,i,-0.68
CCOC(=O)c1[nH]ncc1CN1CCCC(C(=O)c2ccc(OC)cc2C)C1 (stereo unspecified),i,-0.78
COc1cccc(CNc2ncn[nH]2)c1OCc1ccccc1F,i,0.01
OCc1n[nH]c(CO)n1,i,1.3
O=c1c2ccccc2c(/C=N/c2nnc(Cc3ccccc3)s2)c(O)n1-c1ccc(Cl)cn1,i,0.26
CC(C)c1ccc(COc2ccc(C(=O)N3CCOCC3)cc2)cc1,i,0.76
CC(=O)c1ccc(NC(=O)C2C3C=CC(O3)C2C(=O)O)cc1 (stereo unspecified),i,0.17
CCN(CC)c1ccc(S(=O)(=O)Nc2cc(Cl)ccc2Cl)cc1NC(=S)NC(=O)C1CCCC1,-7.1*,-1.4*
CCN(CC)c1ccc2cc(S(=O)(=O)c3ccc(C)cc3)c(=O)oc2c1,i,2.2
CCOC(=O)c1c(NC(=O)CCN2C(=O)c3cccc([N+](=O)[O-])c3C2=O)sc(C(=O)OC(C)C)c1C,i,2
Cc1nc(N2CCc3ccccc3C2)[nH]c(=O)c1CCC(C)C,i,-1.7
CN(C(=O)c1cc2c(s1)-c1ccccc1S(=O)(=O)C2)c1ccccc1,i,0.2
CC(C)(C)n1nnnc1C(c1ccc(F)cc1)N(Cc1ccc(F)cc1)Cc1ccco1 (stereo unspecified),-11*,1.3*
CC1CCC(C(C)C)C(OCC(O)C[N+]2(C)CCCCC2)C1 (stereo unspecified),i,-1.7
Cc1[nH]c2ccccc2c1C(=O)CSc1n[nH]c(N)n1,i,-0.01
CCC(=O)N1CCN(c2ccc(NC(=S)NC(=O)COc3ccccc3)cc2)CC1,i,-0.37
C#CCOCCOCCOCCNc1nc(N2CCN(C(=O)[C@H](Cc3ccc(O)cc3)n3cc([C@@H](N)C(C)CC)nn3)CC2)nc(N2CCN(C(=O)[C@H](CCCCN)n3cc([C@@H](N)CC(C)C)nn3)CC2)n1 (stereo partly specified),i,-0.58
COc1cccc(CN2CCN(Cc3cc(OC)c(OC)cc3[N+](=O)[O-])CC2)c1,i,2.8
CCOC(=O)CSc1ccc(S(=O)(=O)N2CCCC2)cc1[N+](=O)[O-],i,-0.15
O=C(/C=C/c1ccc(S(=O)(=O)NCc2ccco2)cc1)N1CCN(c2ccccc2)CC1,i,-1.5
O=C(NC(NC(=S)Nc1ccccc1)C(Cl)(Cl)Cl)c1cccc(Cl)c1 (stereo unspecified),i,-0.99
O=C(OCn1ncc(Cl)c(Cl)c1=O)c1ccccc1Cl,i,-2.3
O=C(CCCN1C(=O)c2cccnc2C1=O)Nc1ccccc1F,i,0.33
Cc1cccc(N2CCN(C(=O)CCNS(=O)(=O)c3ccc4c(c3)CCC(=O)N4)CC2)c1C,i,-1.2
Cc1cc(OCc2cc(C(=O)NC(C)c3c(C)nn(C)c3C)no2)cc(C)c1Cl (stereo unspecified),i,-0.44
Cc1nc2ccccc2n1CC(=O)N1CC(=O)Nc2ccccc21,i,-0.05
O=C(Nc1ccc(S(=O)(=O)N2CCCC2)cc1)N1c2ccccc2Sc2ccccc21,i,0.02
CCC(=O)N(CCC(c1ccco1)c1ccccc1OC)Cc1cccs1 (stereo unspecified),i,2.9
COc1cc2c(c(OC)c1OC)-c1ccc(NC(=O)c3ccc(F)cc3)c(=O)cc1[C@@H](NC(C)=O)CC2,i,0.13
CCn1c(=O)n(CC)c2cc(S(=O)(=O)N3CCOCC3)ccc21,i,0.79
O=C(NCc1cccc(Br)c1)c1cc(-c2ccccc2)nn1CC1CC(c2cccnc2)=NO1 (stereo unspecified),i,0.76
COCCCNc1nc2nonc2nc1N1CCN(C2CCCC2)CC1,i,-0.47
C=CCOc1ccc(Br)cc1/C=C1\NC(=S)N(C(C)=O)C1=O,i,-0.4
CCOc1ccccc1C(=O)NC1CCN(Cc2ccccc2)CC1,i,1.3

# Continued.
SMILES,KCNQ2 inh,KCNQ2 inh baseline
Cc1cccc(OCC(=O)Nc2ccccc2N2CCCC2)c1C,i,-3.7
S=c1[nH]nc(Cc2n[nH]c(=S)n2-c2ccccc2)n1-c1ccccc1,i,0.64
CC1CCN(C(=O)c2cc3c(ccc4ccccc43)o2)CC1,i,0.55
CN(C)C(=O)COC(=O)/C=C/c1cn(-c2ccccc2)nc1-c1cccs1,i,-0.02
CC(=O)c1cccc(NC(=O)CSc2ccc(-c3ccccn3)nn2)c1,i,-0.81
O=[N+]([O-])c1ccc(/C=N/N2CCN(Cc3ccccc3)CC2)cc1,i,-0.1
COc1ccc(N2CCN(C(CNC(=O)C3CCCCC3)c3ccco3)CC2)cc1 (stereo unspecified),i,-0.9
Cc1ccc(CNC(=O)CCSCc2ccc(C)cc2)cc1,i,-1.6
CC(=O)NC(CC(C)C)C(=O)NC(CO)C(=O)NC(CCC(=O)O)C(=O)NC(C)C(=O)NC(CC(C)C)C(N)=O (stereo unspecified),i,-0.37
COc1ccc(-n2nc(C(C)=O)c(=O)[nH]c2=O)cc1,i,0.02
CC(OC(=O)Cc1ccc(Cl)cc1)C(=O)NCCC1=CCCCC1 (stereo unspecified),i,0.63
COc1ccccc1OCC(=O)N1CCN(c2ccccc2OC)CC1,i,-0.86
Cc1c(NC(=O)c2ccc(Cl)c(S(=O)(=O)N3CCCCC3)c2)c(=O)n(-c2ccccc2)n1C,i,0.51
O=C(Nc1nn[nH]n1)c1cccc(Oc2ccccc2)c1,i,-0.02
CC(C)CN(C(=O)COC(=O)C12CC3CC(CC(C3)C1)C2)c1c(N)n(Cc2ccccc2)c(=O)[nH]c1=O,i,-1.6
CCOC(=O)C1CCN(C(=O)CCCCn2c(=O)[nH]c3ccccc3c2=O)CC1,i,-0.22
CCOC(=O)c1sc(NC(=O)c2cc(-c3ccccc3C)nc3ccccc23)c(C#N)c1C,-9*,0.47*
CCc1ccccc1OCCCCCNCCO,i,0.16
COc1ccc(C(=O)NCCc2nnc(SCC(=O)Nc3ccc(Br)cc3)n2C)cc1,i,0.01
O=S(=O)(NCCc1cn2ccccc2n1)c1ccc2c(c1)CCCC2,i,-0.73
O=C(CN1C(=O)c2ccccc2C1=O)N1CCN(S(=O)(=O)c2ccccc2)CC1,i,2.5
Cn1c(SCCc2ccc([N+](=O)[O-])cc2)nccc1=O,i,0.9
O=C(CN1CCCCCCC1)Nc1cc(Cl)cc(Cl)c1,i,2
c1cnc(N2CCN(c3ccc4ccccc4n3)CC2)nc1,i,4.2
Cc1[nH]nc2c1C(c1ccccn1)N(c1ccc(Br)cc1)C2=O (stereo unspecified),i,0.49
O=C(CN1CCCCC1)Nc1ccccc1NC(=O)CN1CCCCC1,i,0.97
Cc1ccc(NS(=O)(=O)c2ccc(-c3ccc(=O)[nH]n3)o2)c(C)c1,i,-0.16
CCOc1cc(CO)cc(Br)c1OCC(N)=O,i,2.3
CC1(C)N=C(SCC(=O)Nc2ccccc2)C(c2ccc(Cl)cc2)=N1,i,3.9
CCOC(=O)N1CCC(N2CCCC(CO)(Cc3ccccc3C)C2)CC1 (stereo unspecified),i,-0.09
CCN(CCCNC(=O)Cn1ncc2c([nH]c3ccc(C)cc32)c1=O)c1cccc(C)c1,i,-1.5
CC(=O)NNc1ncnc2c1cnn2-c1ccc(C)c(Cl)c1,i,-0.71
Cc1ccc(-n2c(SCC(N)=O)nc3c([nH]c4ccccc43)c2=O)cc1,i,-0.52
COCCNC(=O)Cn1cnc2sc(C)c(S(=O)(=O)N3CCC(C)CC3)c2c1=O,i,-1.1
COC(=O)c1ccc(CNC(=O)CSC2=NCCS2)cc1,i,-0.87
c1ccc(-c2nc(NCc3ccco3)c3ccccc3n2)nc1,i,-0.16
NCCNC(=O)c1c(NC(=O)c2ccccc2)sc2c1CCCC2,i,-0.43
COc1cc(OC)cc(C(=O)NC(=S)Nc2ccc(Cl)c(C(=O)O)c2)c1,i,1.8
COc1ccccc1Oc1ccc(N/C=C/C(=O)c2ccc(C)o2)cc1,i,-0.44
COc1ccc(NC(=O)N[C@@H](CCSC)C(=O)O)cc1Cl,i,-0.03
COc1ccccc1C(=O)Nc1ccc2c(c1)nc1n2CCN(Cc2ccccc2)C1,i,-0.49
O=C(NCCCc1ccccc1)c1cc(COc2ccc(F)cc2Cl)on1,i,-1.2
CCCOc1ccc(C(=O)C(CCC(CNCC)C(=O)c2ccc(OCCC)cc2)CNCC)cc1 (stereo unspecified),i,0.35
Cc1ccc(OCC(O)CN2CCc3ccccc3C2)c(C)c1 (stereo unspecified),i,0.08
c1ccc2c(c1)OCC(c1nn3c(Cn4nnc5ccccc54)nnc3s1)O2 (stereo unspecified),i,-1.4
CNC(=O)CSc1nnc(-c2ccco2)n1-c1ccccc1OC,i,-1.1
Cc1csc(N(C)C(=O)CSc2nnc(COc3ccccc3C)o2)n1,i,-0.37
CCCNc1nc(OC(C(F)(F)F)C(F)(F)F)nc(OC(C(F)(F)F)C(F)(F)F)n1,i,-1.2
Cc1ccc(C(=O)NN2C(=O)C3C(C2=O)C2C=CC3C23CC3)cc1 (stereo unspecified),i,1.4
O=C1CC(N2CCC(c3nc4ccccc4[nH]3)CC2)C(=O)N1Cc1ccccc1 (stereo unspecified),i,-0.69

# Going on with the list.
SMILES,KCNQ2 inh,KCNQ2 inh baseline
O=C(C1=C[C@H](C2CC2)C[C@H](OCc2ccc(CO)cc2)O1)N1CCOCC1,i,0.06
CC(=O)N1CCN=C1SCc1c(F)cccc1Cl,i,-0.47
O=C(CN1CC(=O)Nc2ccccc21)NCCc1ccc(Cl)cc1Cl,i,-0.4
NC(=O)C1CCN(C(=O)Cn2cccc2C(=O)c2ccccc2)CC1,i,3.4
O=C(O)CC1S/C(=N/N=C/c2ccc(-c3ccc(Cl)cc3[N+](=O)[O-])o2)NC1=O (stereo unspecified),i,-0.04
COc1cc(OC)c(OC)cc1/C=N/NC(=O)CC1C(=O)NN=C1C (stereo unspecified),i,4
Cc1cc(=O)n2nc(N3CCCC3C(=O)Nc3ccccc3C)sc2n1 (stereo unspecified),i,-1.4
ClCc1csc(N/N=C/c2cccs2)n1,i,0.54
O=C(Cc1ccc(Cl)cc1)Nc1ccccc1C(=O)Nc1ccc(C(=O)O)cc1,i,-0.81
O=C(CC1C(=O)NCCN1Cc1ccccc1)NCCN1CCCCC1=O (stereo unspecified),i,-0.04
Cc1ccc(S(=O)(=O)/N=S(/C)c2ccccc2)cc1 (stereo unspecified),i,0.08
O=c1c2ccccc2ncn1Cc1cccc2ccccc12,i,-0.52
O=C(Nc1cccc(C(=O)O)c1)Nc1cccc2ccccc12,i,0.85
CCOC(=O)C1CCN(C(=O)COc2cccc(C)c2)CC1,i,1.1
CN(CCCNC(=O)c1ccc(N2CCCC2=O)cc1)c1ccccc1,i,1.1
Cc1ccc(S(=O)(=O)N2CCCCC2C(=O)N2CCN(c3ccccc3F)CC2)cc1 (stereo unspecified),i,0.21
CCCOc1cc(C)c(S(=O)(=O)n2ccc(C)n2)cc1C,i,2.6

# The list is partial; the hit share may differ from the screen's.
